Anthrax LT inh: qHTS Assay for Anthrax Lethal Toxin Internalization; Cells, anthrax lethal toxin internalization, FRET ratio (460/530); Potency, µM (series often up to 40 µM), for inactives: at the highest dose activity change, negative = inhibition, most hits filed as inhibitors; actives 0.67% (n = 70,000); active = well fitted falling ratio curve with the 530 nm signal flat; inconclusive = other ratio curves, or a change in one channel alone; inactive = flat curves in the ratio and both channels; the % refers to the ratio; also: % is scaled to controls: 0 for no effect and ±100 for the full control effect; nearly all actives have a fitted effect of over 50% in size; tested in ME-180 cells; beta-lactamase reporter
Prx2 Sm inh: Schistosoma Mansoni Peroxiredoxins (Prx2) | actives 0.07% (n = 65,000) | Schistosoma mansoni peroxiredoxin 2 (Prx2) | Potency, µM | AID 448, 2006 | S. mansoni Prx2 activity coupled to TGR/GSH (TGR is thioredoxin glutathione reductase), NADPH fluorescence loss, qHTS; some inactives read as strong as hits; active means full or partial inhibition curve with a strong effect at the top dose; inconclusive means weaker partial or single-point curve; inactive means no accepted curve; also: series up to 57 µM; many of its hits are not listed in these tables
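Coupled assay in which S. mansoni TGR passes NADPH reducing equivalents via glutathione to Prx2, which reduces H2O2. Compounds were preincubated 15 min at room temperature with 25 nM TGR/50 nM Prx2 mix. Kinetic NADPH fluorescence loss (ex 365/em 450 nm) was monitored.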
Active calls of the source: *; ? = inconclusive; · = no result given; & = joins results of further samples; [ ] = dose if it differs, or a comment. Potency is read from the fitted curve at half-maximal effect.

Compound	Anthrax LT inh	Prx2 Sm inh
COCCCNC(CC(=O)Nc1ccccc1C(=O)OC)C(=O)O (stereo not given)	-2.5%	>57
CC(c1ccccc1)n1cc(C(=O)NCCN2CCOCC2)nn1 (stereo not given)	-10.9%	>57
CC(C(=O)N1CCN(C)CC1)N1C(=O)c2ccccc2C1=O (stereo not given)	0.7%	>57
CCOC(=O)N1CCC(NC(=O)C2CCN(S(=O)(=O)c3c(C)noc3C)CC2)CC1	2.3%	>57
COC(=O)c1cc(=O)nc2scc(C)n12	-2.3%	>57
CCC(CC)C(=O)Nc1cccc(C(=O)N2CCOCC2)c1	-2.4%	>57
CCOC(=O)C1Cc2cc3c(cc2C1=O)CC(C(=O)OCC)C3=O (stereo not given)	-2.8%	>57
COc1cc(N)c(Cl)cc1C(=O)N[C@@H]1CN2CCC1CC2	-11.7%	>57
c1ccc2[nH]c(SN3CCOCC3)nc2c1	-2.1%	>57
CS(=O)(=O)N1CCc2cc(S(=O)(=O)Nc3ccc4c(c3)OCCO4)ccc21	12.4%	>57
O=C(O)COc1ccc2c(c1)OCCO2	0.1%	·
COC(=O)c1cc(S(=O)(=O)N2CCC(C)CC2)ccc1F	?	>57

Next section
Compound	Anthrax LT inh	Prx2 Sm inh
CCN(CCCNC(=O)C1CCN(S(=O)(=O)c2cnc[nH]2)CC1)c1ccccc1	-3.9%	>57
CCOC(=O)c1ccc(NC2c3ncccc3C(=O)N2Cc2ccc(F)cc2)cc1 (stereo not given)	-10.2%	>57
CCC(C)NC(=O)C(NS(=O)(=O)c1ccc2c(c1)c(=O)n(C)c(=O)n2C)c1ccccc1 (stereo not given)	-0.2%	>57
CCOc1ccc(OCC)c(NC(=O)C2C3C=CC(O3)C2C(=O)NCc2ccco2)c1 (stereo not given)	-0.8%	>57
C[N+]1(C)[C@@H]2CC[C@H]1CC(OC(=O)[C@@H](CO)c1ccccc1)C2 (stereo not given in full)	-0.5%[3.58 µM]	>57&>57&>57
CCNC(=O)[C@@H]1O[C@@H](n2cnc3c(NCc4ccccc4)ncnc32)[C@@H](O)[C@H]1O	?	>57
COCCSc1ccccc1C(=O)NCc1ccco1	?	>57
CCOc1ccc(N(CC(=O)Nc2ccccc2)S(C)(=O)=O)cc1	-7.7%	>57
CCOC(=O)c1ccc(NC(=O)CCc2nc(-c3cccc(C)c3)no2)cc1	-7.7%	>57
COc1ccc(-c2cn3c(C)c(C(=O)Nc4cccc(NC(C)=O)c4)sc3n2)cc1	-11.8%	>57
O=C(c1ccc(COc2ccc(F)cc2)o1)n1cccn1	-3.9%	>57
CCCCCCCCCCCCCl	-6.8%	·

Further records
Compound	Anthrax LT inh	Prx2 Sm inh
N#Cc1ccsc1NC(=O)COc1ccc(-c2nnco2)cc1	-7.9%	>57
Cc1c(C#N)sc2nc(-c3ccccc3)nc(N3CCCC3)c12	-31.0%	>57
COc1ccc(C)cc1NC(=O)C1CCCN(S(=O)(=O)c2cnc[nH]2)C1 (stereo not given)	10.0%	>57
CCc1ccc(-c2nc(CN3CCC(C(=O)NCCN(CC)c4ccccc4)CC3)c(C)o2)cc1	?	>57
O=C(O)c1cc(S(=O)(=O)NCc2ccco2)c(Cl)cc1Cl	-7.9%	>57
CC(C)n1c(SCC(=O)c2ccc3c(c2)OCCO3)nc2c1c(=O)n(C)c(=O)n2C	-15.9%	>57
COc1ccccc1NC(=O)c1ccc(S(=O)(=O)N2CCOCC2)cc1	-10.2%	>57
CN1CCC2(CC1)CCN(C(=O)c1ccco1)CC2	7.0%	>57
COc1cc(OC)cc(-c2nnc(SCC(=O)Nc3cc(C)on3)o2)c1	11.4%	>57
Cc1ccc(S(=O)(=O)Nc2cc(C(=O)N3CCC4(CC3)OCCO4)ccc2N2CCCCC2)cc1	10.2%	>57
CN1CCN(c2ccccc2NC(=O)c2ccc(OCc3ccccc3)cc2)CC1	?	>57
CC(=O)c1ccc(-n2nnnc2SCC(=O)N2CCc3ccccc3C2)cc1	?	>57

Next part
Compound	Anthrax LT inh	Prx2 Sm inh
O=C(c1cccnc1NCc1ccc(F)cc1)N1CCOCC1	-12.7%	>57
COc1nc(-c2ccc(C)cc2)ccc1-c1noc(-c2ccco2)n1	?	>57
CCOC(=O)c1[nH]nc(C(=O)c2ccc(Br)cc2)c1O	5.4%	>57
CC(CCN)(CCN)[N+](=O)[O-]	-9.1%[8 µM]	>57
CCSC1=C(C#N)C(c2ccc(Cl)cc2)C2=C(CCCC2=O)N1 (stereo not given)	6.4%	>57
N#CS.N=C=S.N=C=S.[Cu].[NH2-].[NH2-].[NH2-].[NH2-].c1ccc2ncccc2c1	-16.1%[8 µM]	>57
Cc1ccc(S(=O)(=O)N2CCC(C(=O)N3CCC(C(=O)NCc4cccnc4)CC3)CC2)cc1	10.0%	>57
COc1cccc(NC(=O)C2CCCN2C(=O)OCc2ccccc2)c1 (stereo not given)	14.2%	>57
CCCc1nc(Nc2nc3ccccc3o2)nc(C)c1C(=O)OCC	-0.5%	·
O=C1CCCC=C1[C@@H](O)CCOC(c1ccccc1)(c1ccccc1)c1ccccc1	8.2%[8 µM]	·
COc1ccccc1NC(=O)CC1Nc2ccccc2NC1=O (stereo not given)	·	>57
CC1Oc2ccccc2N(CC(=O)Nc2ccc3c(c2)OCO3)C1=O (stereo not given)	?	>57

New compounds follow:
Compound	Anthrax LT inh	Prx2 Sm inh
CCOC(=O)CSCc1c(C#N)c2ccccc2n1C	15.2%	>57
CCn1c(COc2cccc(OC)c2)nnc1SCC(=O)Nc1cc(OC)ccc1OC	-5.0%	>57
Cc1cccc(C(C)(C)C)c1OCCn1ccnc1	-3.3%	>57
Cc1ccc(C2C(C(=O)c3sc(C)nc3C)=C(O)C(=O)N2CCN2CCOCC2)o1 (stereo not given)	0.2%	>57
COc1ccc(CCn2c(O)c(C=NCc3ccc4c(c3)OCO4)c(=O)[nH]c2=O)cc1OC	·	>57
CCN(CC)S(=O)(=O)c1ccc2c(c1)nc(SCC(=O)NC1CC1)n2-c1ccccc1OC	-2.5%	>57
CCOc1ccc(NC(=O)Nc2ccc(N(C)C(C)=O)cc2)cc1	8.2%	>57
CCOC(=O)c1c(-c2ccccc2)[nH]c2ccc(O)cc12	-3.1%	>57
Cn1c(/C=C/N2CCOCC2)c(C(=O)c2ccc(Br)cc2)c(=O)n(C)c1=O	6.3%	>57
O=C(Nc1ccc2c(c1)OCO2)c1ccc(S(=O)(=O)NCC2CCCO2)cc1 (stereo not given)	-24.9%	>57
Cc1ccc(C)n1-c1ccc(-c2nnco2)cc1	?	>57
CC(C)NC(=O)CN(c1cccc(Br)c1)S(C)(=O)=O	-12.4%	>57

Further records follow.
Compound	Anthrax LT inh	Prx2 Sm inh
CC(C)(NC(=O)N1CCCC1)c1cccc(C(C)(C)NC(=O)N2CCCC2)c1	10.9%	·
c1ccc(CCn2nnnc2C(c2cccnc2)N2CCN(c3nc4ccccc4s3)CC2)cc1 (stereo not given)	?	>57
O=C(CSc1nnc(-c2cccs2)n1Cc1ccco1)Nc1ccc2c(c1)OCO2	2.3%	>57
Cc1ccc(-c2noc(C3CCN(S(=O)(=O)c4ccc5c(c4)OCCO5)CC3)n2)o1	?	>57
Cn1nc(-c2ccc(C(=O)N3CCN(c4ccccc4)CC3)cc2)c2ccccc2c1=O	11.2%	>57
O=C(NC(C(=O)c1ccccc1)n1cnccc1=O)c1ccccc1 (stereo not given)	11.6%	·
CC1CCCN(C(=O)Cn2nnc(-c3cccnc3)n2)C1 (stereo not given)	11.7%	>57
Cc1ccc(S(=O)(=O)N(C)CC(=O)NC2CCCC2)cc1	2.4%	>57
Cc1cc(C)c2c3c(sc2n1)C1(CCSCC1)C(C#N)=C(N)O3	?	>57
O=C(CC1(O)C(=O)N(CN2CCOCC2)c2ccccc21)c1ccccc1 (stereo not given)	9.6%	·
CCC(=O)N1CCc2cc(Br)cc(S(=O)(=O)NCC3CCCO3)c21 (stereo not given)	6.4%	>57
COC(=O)c1ccc(C)c(NC(=O)C2COc3ccccc3O2)c1 (stereo not given)	·	>57

(further entries)
Compound	Anthrax LT inh	Prx2 Sm inh
NC(=O)CN1CC(c2ccccc2)CC1=O (stereo not given)	1.8%	·
O=c1c(CCc2ccccc2)nc2cncnc2n1C1CC1	-14.1%	>57
Cc1occc1-c1nnc(SCC(=O)c2ccc(Cl)cc2)n1CC1CCCO1 (stereo not given)	-6.0%	>57
CCOC(=O)c1[nH]c2ccc(OC)cc2c1NC(C)=O	10.8%	>57
COc1ccc(-c2cc(C(=O)Nc3c(C)nn(Cc4ccccc4)c3C)no2)cc1	18.2%	>57
COC(=O)C(C)NC(=O)C(C)NC(=O)OCc1ccccc1 (stereo not given)	25.3%	>57
CC(=O)N1CCN=C1SCc1c(F)cccc1Cl	-1.2%	>57
O=C1CC(N2CCC(c3nc4ccccc4[nH]3)CC2)C(=O)N1Cc1ccccc1 (stereo not given)	0.0%	>57
Cc1csc(N(C)C(=O)CSc2nnc(COc3ccccc3C)o2)n1	-9.1%	>57
c1ccc(CCN2CCN=C2Cc2ccccc2)cc1	?	>57
Cc1cc(C(=O)CSc2nnnn2-c2ccc(O)cc2)c(C)n1Cc1ccc2c(c1)OCO2	?	>57
CNC(=O)CSc1nnc(-c2ccco2)n1-c1ccccc1OC	12.1%	>57

(more compounds)
Compound	Anthrax LT inh	Prx2 Sm inh
c1ccc2c(c1)OCC(c1nn3c(Cn4nnc5ccccc54)nnc3s1)O2 (stereo not given)	-2.9%	>57
COc1ccc(NC(=O)N[C@@H](CCSC)C(=O)O)cc1Cl	-4.1%	>57
c1ccc(-c2nc(NCc3ccco3)c3ccccc3n2)nc1	9.2%	>57
COCCNC(=O)Cn1cnc2sc(C)c(S(=O)(=O)N3CCC(C)CC3)c2c1=O	4.8%	>57
Cc1ccc(-n2c(SCC(N)=O)nc3c([nH]c4ccccc43)c2=O)cc1	5.2%	>57
O=c1c2c(nc3nc(COc4ccccc4)[nH]n13)CCC2	?	>57
Brc1cc2[nH]cnc2c2ccccc12	?	>57
C=CCNC(=O)c1ccc(C(=O)c2ccccc2)cc1	2.9%	>57
CCOC(=O)C1C(c2ccc(C)o2)NC(=O)NC1(O)C(F)(F)F (stereo not given)	3.0%	>57
CS(=O)(=O)N1CCC(C(=O)Nc2ccc(Br)cc2F)CC1	·	>57
CCCOc1cc(C)c(S(=O)(=O)n2ccc(C)n2)cc1C	-11.2%	>57
CCOC(=O)N1CCC(NC(=O)c2cc(C(=O)Nc3ccc(F)cc3F)ccc2CO)CC1	-9.9%	>57

Overlap with the part before: 2 entries, then new ones.
Compound	Anthrax LT inh	Prx2 Sm inh
CCCOc1cc(C)c(S(=O)(=O)n2ccc(C)n2)cc1C	-11.2%	>57
CCOC(=O)N1CCC(NC(=O)c2cc(C(=O)Nc3ccc(F)cc3F)ccc2CO)CC1	-9.9%	>57
CCN1C(=O)c2ccc(-c3nc4ccccc4c(=O)o3)cc2C1=O	1.3%	>57
CN(CCCNC(=O)c1ccc(N2CCCC2=O)cc1)c1ccccc1	-13.7%	>57
CCOC(=O)C1CCN(C(=O)COc2cccc(C)c2)CC1	0.7%	>57
COCCNC(=O)c1cc2c(=O)n3cccc(C)c3nc2n(Cc2ccncc2)c1=N	-5.3%	>57
Cc1nnc(NC(=O)C2CCCN(S(=O)(=O)Cc3ccccc3)C2)s1 (stereo not given)	-1.5%	>57
O=C(NCCN1CCc2ccccc2C1)C1CC(=O)N(C2CCCC2)C1 (stereo not given)	2.7%	>57
CC1=CC(C)(C)Nc2cc(C)c(C)cc21	-6.7%	>57
CCc1ccccc1	18.8%	·
Nc1c(C(=O)OCC2CCCO2)c2nc3ccccc3nc2n1Cc1cccs1 (stereo not given)	?	>57
CN1CCc2nc(N)nc(-c3nc(N)nc4c3CN(C)CC4)c2C1	-3.0%[8 µM]	>57
Clc1ccc(Cc2nn3c(-c4ccncc4)nnc3s2)cc1	-7.8%	>57
CCn1c(=O)n(CC)c2cc(S(=O)(=O)N3CCOCC3)ccc21	7.9%	>57

Next section
Compound	Anthrax LT inh	Prx2 Sm inh
Cc1noc(C)c1-c1cncnc1N(C)Cc1ccco1	-12.1%	>57
Cc1nc2ccccc2n1CC(=O)N1CC(=O)Nc2ccccc21	-7.8%	>57
COc1ccc(NC(=O)c2cccc(NC(=O)C3C4CC5OC(=O)C3C5C4)c2)c(OC)c1 (stereo not given)	5.7%	>57
C=CCOc1cccc(C2C(C(=O)c3ccc(C)o3)=C(O)C(=O)N2CCN(C)C)c1 (stereo not given)	4.2%	>57
Cc1nc(SCC(=O)Nc2ccc(F)cc2)c2oc3ccccc3c2n1	-2.5%	>57
CCOC(=O)c1sc(NC(=O)COC(=O)Cn2cnc3ccccc32)c(C(=O)OCC)c1C	14.3%	>57
Cc1cccc(N2CCN(C(=O)CCNS(=O)(=O)c3ccc4c(c3)CCC(=O)N4)CC2)c1C	7.9%	>57
Cc1cc(NCCOCCO)n2ncc(-c3ccc(Cl)cc3)c2n1	?	>57
COC(=O)c1nc(N)sc1-c1ccccc1	?	>57
CC(C)CN1CCCC2(CCN(S(=O)(=O)c3ccccc3)CC2)C1	?	>57
O=C(CN1CCCCC1)Nc1ccccc1NC(=O)CN1CCCCC1	-9.6%	>57

Screening data as filed in PubChem BioAssay.

An excerpt; rates above refer to the full screens.
